Compound activity from PubChem.
GALR2 ag – GALR2 receptor agonists, primary screen, cell-based. GALR2-expressing cells, agonist activation read-out. activation, %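 (tested at 5 µM)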. 140,000 tested, 0.48% active. AID 803, 2007;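 active means above mean plus 3 SD of all compounds, about 5% in these data, not always enough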;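 further: 0% = vehicle buffer wells and 100% = reference agonist at full effect; tested in CHO reporter cells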
RGS16-Gao HTS – modulators of RGS16 binding to Galphao, primary screen, biochemical, human proteins, multiplexed bead flow cytometry; Regulator of G-protein signaling 16 (Homo sapiens) + Guanine nucleotide-binding protein …; bead-based flow cytometry RGS16-Galphao binding, fluorescence; actives lie on both sides; binding response (% of control), % at 10 µM; 220,000 tested, 0.38% active; AID 1441, 2008;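 active means below 25% or above 175%, edge rows of some plates excepted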;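 further: Galphao activated by GDP with aluminum fluoride before binding; 100% = wells without compound and 0% = beads without RGS; some results beyond the cut were filed as inactive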
PKD1 kinase inh – inhibitors of human PKD1 kinase, biochemical, fluorescence polarization; Serine/threonine-protein kinase D1 (Homo sapiens), Q15139; PKD1 kinase fluorescence polarization assay; inhibition, %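 (about 10 µM by stock and volumes)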; 200,000 tested, 0.056% active;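 active means inhibition of 50% or more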;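 further: controls were vehicle for no effect and a reference inhibitor for full effect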
Target sequence (Q15139 whole entry, looked up): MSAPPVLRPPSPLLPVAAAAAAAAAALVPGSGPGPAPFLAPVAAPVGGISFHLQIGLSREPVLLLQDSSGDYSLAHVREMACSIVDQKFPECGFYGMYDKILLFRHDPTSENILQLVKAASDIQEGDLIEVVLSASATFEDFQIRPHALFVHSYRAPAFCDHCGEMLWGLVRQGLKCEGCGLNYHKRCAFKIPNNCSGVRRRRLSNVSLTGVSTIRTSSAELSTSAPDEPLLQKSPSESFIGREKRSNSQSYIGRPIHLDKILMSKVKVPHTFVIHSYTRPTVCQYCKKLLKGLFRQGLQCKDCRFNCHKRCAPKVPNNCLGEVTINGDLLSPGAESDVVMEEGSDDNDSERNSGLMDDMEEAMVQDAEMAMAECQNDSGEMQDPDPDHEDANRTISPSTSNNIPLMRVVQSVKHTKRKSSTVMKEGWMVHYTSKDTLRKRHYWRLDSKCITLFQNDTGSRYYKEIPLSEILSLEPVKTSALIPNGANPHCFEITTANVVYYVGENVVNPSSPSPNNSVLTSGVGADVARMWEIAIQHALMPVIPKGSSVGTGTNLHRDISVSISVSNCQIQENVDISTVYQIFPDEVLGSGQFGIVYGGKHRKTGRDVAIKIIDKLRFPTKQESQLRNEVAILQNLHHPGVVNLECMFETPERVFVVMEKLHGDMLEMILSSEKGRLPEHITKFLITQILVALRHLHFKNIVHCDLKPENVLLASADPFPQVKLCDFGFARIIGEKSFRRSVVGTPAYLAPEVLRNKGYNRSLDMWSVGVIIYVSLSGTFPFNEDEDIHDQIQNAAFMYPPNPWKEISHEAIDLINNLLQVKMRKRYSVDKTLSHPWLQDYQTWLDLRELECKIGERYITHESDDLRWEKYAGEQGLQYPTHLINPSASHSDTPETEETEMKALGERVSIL
Insulin prom inh – inhibitors of insulin promoter-driven GFP, primary screen, imaging, TRM-6 cells (human fetal islet line), eGFP reporter, cell count; inhibition, % at 2 µM; 130,000 tested, 0.9% active; reporter expression induced with tamoxifen;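 active means inhibition above the mean plus 3 SD, with well images judged a real hit on visual review, cut at about 60% in these data, passing the limit was not always enough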
HSV replic up – enhancers of HSV replication in host cells, fold increase, host cell viability. 220,000 tested, 0.005% active. AID 1956, 2009. HSV replication augmentation in cells. maximum fold increase;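 active means peak rise of 1.5-fold or more in the series; tested in PC3 cells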;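 further: first round at 10 µM; read as green reporter fluorescence; hits show the peak of a series up to 25 µM; 1 = signal of infected wells without compound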
Insulin prom inh cell count – recorded beside Insulin prom inh, whose call it bears; normalized cell count, %; measured here: cell count, toxicity; reference of the scale not given here;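 cells exposed to compound for 48 h; stained nuclei by imaging scaled within each plate; lower means fewer cells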
HSV replic up primary fold – also measured in HSV replic up; calls as there; fold increase; compound at 10 µM; measured here: primary screen fold increase 10 uM; tested in PC3 cells;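 GFP signal in the first replicate; 1 = infected wells without compound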
* hit, by the source's call; i = inactive; . = not tested or not shown; & = joins results of further samples.

Second line of a record – GALR2 ag	RGS16-Gao HTS	PKD1 kinase inh	Insulin prom inh	Insulin prom inh cell count	HSV replic up	HSV replic up primary fold
CC1CN(C(=O)CN2C(=O)c3ccccc3S2(=O)=O)CC(C)O1 (configuration not stated)
→ -1.7	105.6	-2.3	.	.	i	0.983
CCCCNC(=O)N1CCOCCOCCN(C(=O)NCCCC)CCOCCOCC1
→ -1.1	98.7	0.6	-90.9	78.2	i	0.9
Cc1cccc(C)c1NC(=O)NCc1ccco1
→ .	93.5	.	.	.	i	0.89
COc1ccc([N+](=O)[O-])cc1N(CC(O)CN(CC(C)C)CC(C)C)S(=O)(=O)c1ccc(C)cc1 (configuration not stated)
→ .	97.9	.	.	.	i	1.02
COc1ccc(/C=C(\C#N)C(=O)OCC(=O)Nc2c(C)cccc2C(C)C)cc1
→ -0.2	103.4	2.0	25.0	150.2	i	0.96
Cc1ccc(C)c(NS(=O)(=O)c2cc(C(=O)Nc3ccccc3-c3ccccc3)ccc2C)c1
→ 0.8	101.8	-1.1	-16.1	85.9	i	0.97
CCOc1cc(C(=O)OCC(=O)Nc2cccc(C)c2)ccc1OCC(=O)N1CCOCC1
→ -0.7	104.5	2.8	.	.	i	1.02
O=C1CCCCC1C(=O)c1cn(-c2ccc(Cl)c(Cl)c2)nn1 (configuration not stated)
→ .	106.1	1.9	45.0	103.7	i	1.01
CC(=O)Nc1ccc(Cl)c(C(N)=O)c1
→ -3.1	83.9	-0.1	0.0	109.8	i	0.79
CC(C)CNC(=O)c1cccc(NC(=O)c2ccc(NC(=O)c3ccco3)cc2)c1
→ -2.7	94.8	-0.8	28.6	100.0	i	0.75
COc1cccc(-n2nnnc2SCC(=O)c2ccc(NC(C)=O)cc2)c1
→ 0.2	101.6	5.9	.	.	i	0.82
Cc1cc(C(=O)COC(=O)c2nccnc2N)c(C)n1C
→ .	101.7	-1.2	-33.3	78.3	i	1.06
COc1ccc(CN(C(=O)c2nsc(Cl)c2Cl)C(C(=O)NC2CCCC2)c2ccc(C)cc2)cc1 (configuration not stated)
→ -0.8	102.2	-5.8	.	.	i	1.06
Cc1noc(C)c1S(=O)(=O)N(CC(=O)N1CCc2ccccc21)c1ccc(C(C)C)cc1
→ 0.1	107.8	3.0	.	.	i	1.02
CCN(CC)CC(=O)N1c2ccccc2Sc2ccc(Cl)cc21
→ -0.9	108.8	-2.8	-262.2	107.6	i	0.95
Cc1c(CC(=O)O)c(=O)oc2c(C)c(OCc3nn[nH]n3)ccc12
→ .	97.5	.	.	.	i	0.89
COc1ccc(Br)cc1S(=O)(=O)N(CC(=O)N1CCOCC1)c1ccccc1
→ -2.2	77.7	-8.6	-86.7	104.3	i	0.88
C/C(=C\c1ccccc1)C(=O)NCCN1CCOCC1
→ .	99.7	1.1	-28.6	158.6	i	1.05
CCc1ccc(C(=O)NC2CCCCC2)s1
→ -0.7	86.7	-4.1	-159.4	61.8	i	1.11
CCCc1cc(=O)oc2c(C)c(OCc3nn[nH]n3)ccc12
→ .	104.0	.	.	.	i	1.29
O=C(CC1SC2=NCCN2C1=O)Nc1ccccc1 (configuration not stated)
→ -1.0	101.8	2.0	.	.	i	0.66
O=C(N/N=C1\CCCc2ccccc21)c1ccc([N+](=O)[O-])cc1
→ -0.2	52.8	-2.9	17.3	201.6	i	0.99
C/C(CC(=O)Nc1ccccc1Cl)=N\NC(=O)C(=O)NCCO
→ .	97.5	3.6	.	.	i	0.98
Cc1cccc(NC(=O)/C(C#N)=C/c2cn(CC(=O)NCc3ccco3)c3ccccc23)c1C
→ 28.8*	79.3	-2.6	10.0	110.3	i	0.62
CS(=O)(=O)N1CCCC(C(=O)NCc2ccco2)C1 (configuration not stated)
→ -3.7	99.8	-15.8	-4.3	109.1	i	0.97
O=C1c2cccc3cccc(c23)C(=O)N1Cc1ccco1
→ .	102.8	-3.0	.	.	i	0.86
C(=C\c1ccccc1)/CSc1nnc(-c2ccccc2)n1Cc1ccco1
→ -1.7	98.2	-2.6	41.2	59.7	i	0.72
Cc1ccccc1S(=O)(=O)Cc1ccc(C(=O)N2CC(C)CC(C)C2)o1 (configuration not stated)
→ -3.1	77.0	-0.2	.	.	i	1.02
CC(C)NC(=O)N(O)C1N(Cc2ccc3c(c2)OCO3)C(=S)SC1(C)C (configuration not stated)
→ 0.7	94.5	-4.6	-2.9	90.3	i	1.12
CN(C)S(=O)(=O)c1ccc(NC(=O)c2cc(F)c(F)cc2Cl)cc1
→ -2.1	97.3	-5.7	-14.3	248.0	i	0.91
N#CC(c1nc2ccccc2nc1N1CCOCC1)S(=O)(=O)c1ccccc1 (configuration not stated)
→ .	99.7	.	.	.	i	1
CCN(CC)S(=O)(=O)c1ccc(-c2nnc(SC)o2)cc1
→ -2.6	103.5	-4.3	-25.0	124.1	i	1
C[C@H]1CC[C@H]2C(=O)N3[C@H](c4ccccc4Br)[C@@H](C)CC[C@H]3C(=O)N2[C@@H]1c1ccccc1Br
→ -1.9	104.4	-4.6	-85.7	87.7	.	.
O=C1N=C2SCCN2/C1=C\c1ccccc1Cl
→ -1.2	101.6	-1.2	.	.	i	0.92
O=C(CN1C(=O)CSc2ccccc21)NCCC1=CCCCC1
→ -2.2	101.2	-5.4	.	.	.	.
C#CCNC(=O)C1CCN(c2cc(C)nc(-c3ccccc3)n2)CC1
→ .	93.9	-6.0	.	.	i	0.9
CNS(=O)(=O)c1cc(Br)ccc1S(=O)c1ccccc1C(=O)O (configuration not stated)
→ .	106.1	.	.	.	i	1.11
c1ccc(-c2cc3c(nn2)CCc2nonc2-3)cc1
→ -0.8	112.7	-10.2	31.6	78.6	i	1.01
COC(=O)c1ccc(Oc2ccc(C(F)(F)F)cn2)cc1
→ .	99.6	-8.0	.	.	i	0.95
O/N=C1\CC/C(=N\O)c2nn(-c3ccccc3Cl)nc21
→ -1.4	101.0	2.5	.	.	i	0.98

Some of these compounds in order of their number in RGS16-Gao HTS, smallest number first.
Molecule	GALR2 ag	RGS16-Gao HTS	PKD1 kinase inh	HSV replic up primary fold
C#CCNC(=O)C1CCN(c2cc(C)nc(-c3ccccc3)n2)CC1	.	93.9	-6.0	0.9
CCN(CC)S(=O)(=O)c1ccc(-c2nnc(SC)o2)cc1	-2.6	103.5	-4.3	1
c1ccc(-c2cc3c(nn2)CCc2nonc2-3)cc1	-0.8	112.7	-10.2	1.01

The list continues.
Second line of a record – GALR2 ag	RGS16-Gao HTS	PKD1 kinase inh	Insulin prom inh	Insulin prom inh cell count	HSV replic up	HSV replic up primary fold
O=C(CCSc1ccccc1)N1CCOCC1
→ -1.9	105.7	-5.7	33.3	79.7	i	1
Cc1cc(NS(=O)(=O)c2ccc(NC(=O)c3ccco3)cc2)nc(C)n1
→ -2.5	93.5	-4.3	32.4	95.6	i	0.88
Cc1[nH]c2c(C)cccc2c1CC(=O)O
→ .	101.8	5.0	25.0	71.3	i	1.04
O=C(Nc1ccc(Cl)c(Cl)c1)c1cccc(S(=O)(=O)NCc2cccnc2)c1
→ 0.0	98.8	8.8	.	.	i	1.04
COc1ccc(CN(CC(=O)NCC2CCCO2)C(=O)CNS(=O)(=O)c2ccc(C)cc2)cc1 (configuration not stated)
→ 0.0	102.8	-0.2	-52.8	164.3	i	0.94
Cc1cccc(NNC(=O)c2c(F)cccc2Cl)c1
→ .	101.9	.	.	.	i	1.08
COc1ccc(CC(NC(C)=O)C(=O)N2CCN(C(=O)Nc3ccc(Cl)cc3)CC2)cc1OC (configuration not stated)
→ -3.2	100.8	-6.3	.	.	i	0.88
CCOc1ccccc1N(CC(=O)OC)S(C)(=O)=O
→ -1.3	106.4	3.2	-14.3	71.2	i	0.89
CCCCn1c(CNC(=O)CC)nc2ccccc21
→ -1.8	97.8	4.8	.	.	i	1.05
CCN1CCN(c2nc(N)c([N+](=O)[O-])c(Nc3ccc(C)cc3)n2)CC1
→ 2.1	103.0	-9.5	-67.7	21.4	i	0.74

GALR2 ag: hit marks shown above.
canonical_smiles,GALR2 ag,RGS16-Gao HTS,PKD1 kinase inh,HSV replic up primary fold
Cc1cccc(NC(=O)/C(C#N)=C/c2cn(CC(=O)NCc3ccco3)c3ccccc23)c1C,28.8*,79.3,-2.6,0.62

Following part:
Second line of a record – GALR2 ag	RGS16-Gao HTS	PKD1 kinase inh	Insulin prom inh	Insulin prom inh cell count	HSV replic up	HSV replic up primary fold
C=CCNC(=O)CSc1nnc(-c2ccccc2Br)n1-c1cccc(C(F)(F)F)c1
→ -0.6	89.3	7.3	-27.3	108.1	i	0.92
CN1CCN(C2=Nc3ccccc3Oc3ccc(Cl)cc32)CC1
→ 0.7	103.8&101.9	-5.0	23.8	144.3	i	0.88
COCC(=O)Nc1sc2c(c1C(=O)OC)CCCC2
→ -0.2	60.9	-2.4	-380.0	39.8	i	0.94
C/C(CC(O)c1ccc2ccccc2n1)=N/O (configuration not stated)
→ -0.6	110.2	-3.2	4.3	85.7	i	1.02
N#CCc1ccc(NC(=O)Nc2cccc(Cl)c2)cc1
→ -1.7	100.0	9.1	-7.1	114.0	i	0.91
CC(=O)Nc1nnc(C2=COCCO2)o1
→ .	107.1	-7.6	-154.6	89.3	i	1.03
COc1cc(OC)cc(C(=O)Nc2nc(-c3ccccc3)c(-c3ccccc3)o2)c1
→ -0.6	101.6	3.4	9.7	108.0	i	0.93
COc1ccc(OC)c(-c2csc(NC(=O)CSc3ccccc3)n2)c1
→ -0.9	108.3	-6.6	16.7	121.8	i	0.85
COc1cc(S(=O)(=O)NCc2ccccc2)ccc1Br
→ -0.8	100.8	2.9	11.8	103.3	i	0.86
Cc1ccccc1CC1(CO)CCCN(Cc2cn[nH]c2-c2ccccc2)C1 (configuration not stated)
→ .	101.3	-0.3	.	.	i	0.83

Reprinted from the part before: three compounds; new compounds follow.
Second line of a record – GALR2 ag	RGS16-Gao HTS	PKD1 kinase inh	Insulin prom inh	Insulin prom inh cell count	HSV replic up	HSV replic up primary fold
COc1ccc(OC)c(-c2csc(NC(=O)CSc3ccccc3)n2)c1
→ -0.9	108.3	-6.6	16.7	121.8	i	0.85
COc1cc(S(=O)(=O)NCc2ccccc2)ccc1Br
→ -0.8	100.8	2.9	11.8	103.3	i	0.86
Cc1ccccc1CC1(CO)CCCN(Cc2cn[nH]c2-c2ccccc2)C1 (configuration not stated)
→ .	101.3	-0.3	.	.	i	0.83
Cc1nnc(SCC(=O)N2c3ccccc3C(C)(c3ccc(Cl)cc3)CC2(C)C)s1 (configuration not stated)
→ -1.1	85.8	-5.6	-25.0	49.0	i	1.03
COc1ccc(Nc2nc(N)c([N+](=O)[O-])c(NCCO)n2)cc1
→ .	100.2	.	.	.	i	0.81
Brc1ccc(/C=N/Nc2ccccc2)cc1
→ -1.0	108.2	-11.6	36.4	128.2	i	0.97
CC(=O)Nc1ccc(NC(=O)CSc2ncnn2-c2ccccc2)cc1
→ -1.1	90.8	-1.8	-12.8	66.7	i	0.87
Cc1cc(-c2ccccc2)c(C#N)c(SCC(N)=O)n1
→ -1.0	111.8	-3.2	-9.1	59.7	i	0.9
O=S(=O)(Nc1ccc2c(c1)OCCO2)c1cccc2cccnc12
→ -0.1	99.5	-18.9	.	.	.	.
Cc1nc2c(C(=O)O)cnn2c(C)c1Cc1ccccc1F
→ .	98.2	.	.	.	i	0.83
CCOC(=O)N1CCN(C(=O)C2CC(=O)N(Cc3ccc(OC)cc3)C2)CC1 (configuration not stated)
→ -2.2	101.8	-7.2	14.3	102.5	i	0.91
C/C(=N\NC(=O)c1cccnc1)c1cccc([N+](=O)[O-])c1
→ .	101.4	-3.3	.	.	i	0.95
Cc1cc(-c2nnc(-c3cccc(C(F)(F)F)c3)o2)no1
→ .	100.1	.	.	.	i	1.18
